Screening results as filed in PubChem.
VDR inh = vitamin D3 receptor (human) inhibition. 400,000 tested, 0.93% active. P11473. AID 504847. Potency, µM, inactives show max response, negative = inhibition, usual class: inhibitors. VDR-SRC2-3 peptide fluorescence polarization, 2 h; active = well fitted inhibition curve with a large enough effect; inconclusive = small, poorly fitted or top-dose-only effect, or another doubt; inactive = no such curve, though single readings can be large or run the other way; note: series mostly up to about 120 µM
Target sequence (P11473 whole entry, looked up): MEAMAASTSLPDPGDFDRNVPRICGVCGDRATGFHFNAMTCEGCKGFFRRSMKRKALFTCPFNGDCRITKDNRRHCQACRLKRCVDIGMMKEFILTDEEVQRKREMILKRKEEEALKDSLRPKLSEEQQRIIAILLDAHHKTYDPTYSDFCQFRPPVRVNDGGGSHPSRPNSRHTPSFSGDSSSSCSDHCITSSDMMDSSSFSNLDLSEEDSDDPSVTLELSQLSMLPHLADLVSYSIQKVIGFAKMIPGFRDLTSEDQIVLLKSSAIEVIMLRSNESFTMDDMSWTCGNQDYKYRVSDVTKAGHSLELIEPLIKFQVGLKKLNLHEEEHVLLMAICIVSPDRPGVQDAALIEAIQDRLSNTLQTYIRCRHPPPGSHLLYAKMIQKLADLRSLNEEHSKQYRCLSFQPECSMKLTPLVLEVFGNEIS
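Compounds are added to VDR with labelled SRC2-3 coactivator peptide and held 2 h at room temperature. Inhibition of the VDR–peptide interaction is then read as a change in fluorescence polarization.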
Starred values were filed as active, the others as inactive; ? = inconclusive; & = joins results of further samples. % is set by controls: 0 for no effect and ±100 for the full control effect; potency is the fitted concentration of half-maximal effect.

CCOc1ccc(S(=O)(=O)NCCc2csc(-c3ccc(Cl)cc3)n2)cc1
  VDR inh: 18%

CCOC(=O)C1CCN(C(=O)CN(c2cccc(OC)c2)S(=O)(=O)c2ccccc2)CC1
  VDR inh: 2%

COc1cccc(C(=O)N/N=C2\SCC(=O)N2Cc2ccc3c(c2)OCO3)c1
  VDR inh: -8%

Cc1nc(CN2CCOCC2)cc(=O)[nH]1
  VDR inh: 18%

O=[N+]([O-])c1cccc(C=NN2CCCCCC2)c1
  VDR inh: 0%

CCOC(=O)C1CCN(CCC(=O)Nc2ccccc2)CC1
  VDR inh: -5%

NNc1nc2cccnc2n(CCNc2ncc(C(F)(F)F)cc2Cl)c1=O
  VDR inh: ?

CC1CN(c2cc3nccnc3cc2F)CC(C)O1 (stereo not given)
  VDR inh: -6%

S=C(NCCc1ccccc1)N1CCn2cccc2C1c1cccnc1 (stereo not given)
  VDR inh: -1%

Cc1ccc(C2CC(=O)c3cnc(N4CCc5ccccc5C4)nc3C2)cc1 (stereo not given)
  VDR inh: -7%

COc1ccc(NS(=O)(=O)c2ccc3[nH]c4c(c3c2)CCCCC4)cc1
  VDR inh: 4%

CC(C)CN1CCNC(=O)C1CC(=O)NCCCN1CCCc2ccccc21 (stereo not given)
  VDR inh: 3%

COc1ccc(Cl)cc1NC(=O)C1CCCN(c2ncnc3onc(C)c23)C1 (stereo not given)
  VDR inh: 8%

CCCCOC(=O)CCCc1ccc([N+](=O)[O-])cc1[N+](=O)[O-]
  VDR inh: -8%

O=C(O)CSc1cnc2ccccc2n1
  VDR inh: 5%

CC1CCCCC1NC(=O)CSc1ccsc1[N+](=O)[O-] (stereo not given)
  VDR inh: -5%

CCc1ccc(-n2c(C)nc3cc(C(=O)NCCc4ccccc4)ccc32)cc1
  VDR inh: 7%

COc1ccc(CCNC(=O)C(C(=O)c2ccccc2)n2cc(Cl)ccc2=O)cc1OC (stereo not given)
  VDR inh: -5%

CS(=O)(=O)N(CC(=O)N1CCCC1)c1ccccc1Br
  VDR inh: 11%

Cc1nc2c3ccccc3nc(NNC(=O)CCC(=O)N3CCC(C)CC3)n2n1
  VDR inh: 2%

COC(=O)c1[nH]c2ccc(C)cc2c1NC(=O)CN1CCCc2ccccc21
  VDR inh: 2%

COC(=O)c1cc(-c2ccc(Br)cc2)c2c(=O)n(C)c(=O)n(C)c2n1
  VDR inh: -2%

CCN(C(=O)c1cnc(N2CCOCC2)c2ccccc12)c1cc(C)ccc1C
  VDR inh: 5%

COc1ccc(-c2nc(CS(=O)CC(=O)NCc3ccco3)c(C)o2)cc1 (stereo not given)
  VDR inh: 4%

COc1cc2c(-c3cccc(Cl)c3)nc3c(c(C)nn3-c3ccccc3)c2cc1OC
  VDR inh: -4%

Cc1cc(=O)[nH]c(SCC(=O)Nc2ccc(Br)cc2)c1C#N
  VDR inh: -27%

O=[N+]([O-])c1ccc2c(c1)c1ccccc1n2CCO
  VDR inh: -12%

F[B-](F)(F)COc1ccccc1
  VDR inh: 1%

CC(C)CCN(C(=O)CNC(=O)c1cccs1)C(C(=O)NC1CCCCC1)c1cccnc1 (stereo not given)
  VDR inh: -12%

CCC(C)NC(=O)C1(O)c2ccccc2NC(=O)N1c1ccc(C)c(C)c1 (stereo not given)
  VDR inh: -20%

CC(=O)Nc1ccc(S(=O)(=O)Nc2ccccc2N2CCOCC2)cc1Cl
  VDR inh: -15%

COC(=O)C1=C(CS(=O)(=O)c2cc(Cl)ccc2OC)NC(=O)NC1c1ccc(O)c(OC)c1 (stereo not given)
  VDR inh: 7%

O=S(=O)(c1ccc(Cl)cc1)c1nnn2c1nc(NCc1cccs1)c1sccc12
  VDR inh: 12%

CC(C)N=Cc1c(O)[nH]c2ccccc12
  VDR inh: -7%

CN(CCc1ccccc1)C(=O)c1ccc(NC(=O)Cc2ccc(NC(=O)C3CCN(S(=O)(=O)c4cccc([N+](=O)[O-])c4)CC3)cc2)cc1
  VDR inh: -21%

COc1ccc(NC(=O)CSc2ccc3nnc(-c4ccccn4)n3n2)cc1OC
  VDR inh: 5%

CC1(C)CC(=O)C2=C(C1)c1c(ccc3ccccc13)NC2c1ccc(OCC(=O)O)cc1 (stereo not given)
  VDR inh: 2%

CCOCCCNC(=S)Nc1cc(OCC)c(NC(=O)c2ccco2)cc1OCC
  VDR inh: -7%

CN(C)S(=O)(=O)c1ccc(N2CCCC2)c(C(=O)N2CCN(S(=O)(=O)c3ccc(F)c(F)c3)CC2)c1
  VDR inh: -10%

CC(/C=C1\SC(=S)N(C(C(=O)O)C(C)C)C1=O)=C\c1ccccc1 (stereo not given)
  VDR inh: ?

O=C(O)/C(=C\c1cccc([N+](=O)[O-])c1)c1ccc(S(=O)(=O)N2CCCCC2)s1
  VDR inh: -2%

CC(=O)c1ccc(NS(=O)(=O)c2ccc3c(c2)CCC(=O)N3)cc1
  VDR inh: 20%

COc1cc(Cn2cnnn2)ccc1O
  VDR inh: 14%

Cc1ccc(NC(=O)CN(C)S(=O)(=O)c2cccc3nsnc23)cc1C
  VDR inh: 15%

CCCOc1ccc(CNC(=O)CCCN2C(=O)CSc3c2c(C)nn3-c2ccccc2)cc1
  VDR inh: -8%

O=C(NCCCN1CCOCC1)c1cc2ccccc2o1
  VDR inh: -17%

CC1CCC2(CC1)NC(=O)N(CC(=O)NC(C)c1ccc(F)c(F)c1)C2=O (stereo not given)
  VDR inh: -2%

COc1ccc(-n2c(=O)c(CCc3ccccc3)nc3cnc(N4CCN(C)CC4)nc32)cc1
  VDR inh: -3%

CS(=O)(=O)N(Cc1cccc(CN(C(C(=O)O)c2ccccc2)S(C)(=O)=O)c1)C(C(=O)O)c1ccccc1 (stereo not given)
  VDR inh: ?

Cc1cc(C)cc(NC(=O)Cn2c(=O)n(C(C)C)c(=O)c3oc4ccccc4c32)c1
  VDR inh: 8%

Structural class, the compounds so far containing a furan ring, fused or not
COc1ccc(-c2nc(CS(=O)CC(=O)NCc3ccco3)c(C)o2)cc1 (stereo not given)
  VDR inh: 4%

CCOCCCNC(=S)Nc1cc(OCC)c(NC(=O)c2ccco2)cc1OCC
  VDR inh: -7%

O=C(NCCCN1CCOCC1)c1cc2ccccc2o1
  VDR inh: -17%

Cc1cc(C)cc(NC(=O)Cn2c(=O)n(C(C)C)c(=O)c3oc4ccccc4c32)c1
  VDR inh: 8%

Next compounds follow:
Cc1ccc(-c2cn(-c3ccccc3F)c(=S)[nH]2)cc1
  VDR inh: -14%

O=C(Nc1ccc(Cl)c(Cl)c1)Nc1ccccn1
  VDR inh: 6%

O=S(=O)(c1ccccc1)N1CCC2(CC1)CN(c1ccncc1)C2
  VDR inh: -3%

Cc1ccccc1N1CCN(c2ccccc2NC(=O)/C=C\C(=O)O)CC1
  VDR inh: -6%

O=C(Cn1cc(S(=O)(=O)c2ccc(F)cc2)c(=O)c2cc3c(cc21)OCO3)Nc1ccccc1
  VDR inh: ?

CCCCCn1c(=O)[nH]c2cc(C(=O)NCCCN3CCCCC3)ccc2c1=O
  VDR inh: 4%

COc1cccc(Nc2nnc(Cc3cccnc3)c3ccccc23)c1
  VDR inh: -2%

Cc1ccc(Cc2nc3ccccc3nc2SCC(=O)N2CCCCC2)cc1
  VDR inh: -1%

COc1ccc(N2C(=O)CC2(/C=C/c2ccccc2OC)C(=O)NC2CCCC2)cc1 (stereo not given)
  VDR inh: -5%

COc1cc(C2=NOC(C(=O)Nc3ccc4c(c3)OCO4)C2)cc(OC)c1OC (stereo not given)
  VDR inh: 8%

COC(=O)c1cn(-c2nc(C)c3c(n2)CCC3)nn1
  VDR inh: -14%

Cc1cc2c(cc1S(=O)(=O)NCCc1ccc(Cl)cc1)OCC(=O)N2
  VDR inh: -3%

O=C(Nc1nc2ccc(S(=O)(=O)N3CCCC3)cc2s1)C1CCCO1 (stereo not given)
  VDR inh: 0%

CCc1ccc(CNCCNC(=O)c2ccco2)cc1
  VDR inh: -6%

COc1ccc(OC)c(NC(=O)N2CCN(S(=O)(=O)c3ccc4c(ccn4C)c3)CC2)c1
  VDR inh: 10%

O=C(NC(=S)Nc1ccccn1)c1cccc([N+](=O)[O-])c1
  VDR inh: -21%

CCCn1c(CCC(=O)O)ccc1-c1ccc(F)cc1
  VDR inh: -12%

Cc1ccccc1NC(=O)C1CCN(C(=O)c2ccc(F)cc2)CC1
  VDR inh: 2%

COc1ccc(C2Nc3cccc4cccc(c34)N2)cc1
  VDR inh: -19%

Cc1cc(Cl)ccc1C(=O)C1CCCN(C(=O)/C=C/c2cnn(C)c2)C1 (stereo not given)
  VDR inh: -25%

O=C(Nc1ccc(Cl)cn1)Nc1ccccc1Cl
  VDR inh: -8%

O=C1NCCCC1C(=O)N1CCN(C(c2ccccc2)c2ccccc2)CC1 (stereo not given)
  VDR inh: -2%

Cc1c(-c2ccc(Cl)cc2)oc(=O)c2c(N)n(-c3ccccc3)nc12
  VDR inh: 4%

c1ccc(CCNc2nc3ccccc3n3nnnc23)cc1
  VDR inh: -10%

CCN1/C(=C/c2ccc3cc(C)ccc3[n+]2CC)Sc2cc(C)ccc21
  VDR inh: 1%

Later entries.
compound | VDR inh
O=C(O)c1cccnc1NC1CCCC1 | -4%
O=C(NC1CCCCCCC1)c1cccc(S(=O)(=O)N2CCOCC2)c1 | -11%
CCC(C)NC(=O)[C@@H]1CSC2c3ccccc3C(=O)N21 (stereo not given in full) | -16%
COc1ccc(CNC(=O)CSc2nnc3c(n2)[nH]c2ccc(OC)cc23)cc1 | 5%
Cc1ccc(NC(=S)/N=C(\N)Nc2nc(C)c3cc(C)c(C)cc3n2)cc1C | ?
CCN1CCN(c2ncc3c(n2)CC(c2cc(OC)c(OC)c(OC)c2)CC3=O)CC1 (stereo not given) | 2%
CCn1nc(C(=O)Nc2ccc3nc(C)sc3c2)c2ccccc2c1=O | -21%
CCOC(=O)Cn1c(C)c(C#N)c2ccccc21 | -1%
COc1ccc(C2CC(=O)Oc3c(C(CCN4CCOCC4)c4cc(OC)c(OC)c(OC)c4)c(OC)cc(OC)c32)cc1 (stereo not given) | -1%&9%
COC(=O)c1ccccc1NC(=O)c1ccccc1OC | 1%
O=C(O)COc1ccc(/C=N/Nc2nc(Nc3ccccc3)nc(N3CCCCC3)n2)cc1 | 4%
CCOc1cccc2c1OC1(C)CC2NC(=O)N1c1cccc(C(=O)N2CCN(c3ccccn3)CC2)c1 (stereo not given) | 27%
CCc1nn(CC(=O)NCCC2=CCCCC2)c(=O)c2cc3cc(F)ccc3n12 | -1%
Cc1nc2ccc(Br)cn2c(=O)c1Cl | 2%
O=S(=O)(c1ccc(SCc2ccc(Br)cc2)nc1)N1CCOCC1 | -6%
CCOC(=O)c1ccc(NC(=O)Cn2nc3c4ccccc4n(Cc4cccc(F)c4)cc-3c2=O)cc1 | 2%
O=C(NC1CCCCC1)C(c1ccc(O)cc1)N(CC1CCCO1)C(=O)C1COc2ccccc2O1 (stereo not given) | -1%
COc1cc(NC(=O)CN2CCC(Cc3ccccc3)CC2)c(C)cc1[N+](=O)[O-] | -20%
O=C(Cc1ccc(Br)cc1)c1ccc(O)cc1O | 8%
O=C1Nc2ccc([N+](=O)[O-])cc2OC1CCN1CCN(Cc2ccc3c(c2)OCO3)CC1 (stereo not given) | -3%
CCC(Cn1nnc2ccccc2c1=O)NC(=O)Nc1cccc(Cl)c1 (stereo not given) | -1%
O=C(CCc1ccccc1)NC(NC(=S)Nc1cccc(Cl)c1)C(Cl)(Cl)Cl (stereo not given) | -10%
O=C(COC(=O)CNC(=O)C1CCCCC1)NC1CC1 | 5%
COc1ccc(OC)c(S(=O)(=O)N2CCC(C(=O)NCc3ccccc3OC)CC2)c1 | 0%
O=C(c1cnc(Cl)c(Cl)c1)N1CCN(S(=O)(=O)c2ccc(F)cc2)CC1 | 7%
O=c1[nH]ncc(NCc2ccc(Cl)cc2)c1Cl | -8%
CCN(CC)S(=O)(=O)c1ccc2oc(C(=O)NCc3ccc(C)cc3)c(C)c2c1 | 14%
Cc1c(C(=O)NCCN2C(=O)S/C(=C\c3cccnc3)C2=O)cccc1[N+](=O)[O-] | -15%
COc1cc(C(=O)CSc2nccn2C)cc(OC)c1OC | -20%
COc1ccc(CN(C)CC(=O)Nc2ccc(Cl)cc2F)c(OC)c1 | -17%

Reprinted from the part before: 7 entries; new compounds follow.
compound | VDR inh
COc1ccc(OC)c(S(=O)(=O)N2CCC(C(=O)NCc3ccccc3OC)CC2)c1 | 0%
O=C(c1cnc(Cl)c(Cl)c1)N1CCN(S(=O)(=O)c2ccc(F)cc2)CC1 | 7%
O=c1[nH]ncc(NCc2ccc(Cl)cc2)c1Cl | -8%
CCN(CC)S(=O)(=O)c1ccc2oc(C(=O)NCc3ccc(C)cc3)c(C)c2c1 | 14%
Cc1c(C(=O)NCCN2C(=O)S/C(=C\c3cccnc3)C2=O)cccc1[N+](=O)[O-] | -15%
COc1cc(C(=O)CSc2nccn2C)cc(OC)c1OC | -20%
COc1ccc(CN(C)CC(=O)Nc2ccc(Cl)cc2F)c(OC)c1 | -17%
Cc1ccc(-c2nnc(SCC(=O)N(CC(C)C)c3c(N)n(Cc4ccccc4)c(=O)[nH]c3=O)n2N)cc1 | -4%
O=C(Nc1ccccc1)NC1(C(=O)N2CCC(O)CC2)CCCCC1 | -5%
O=C(O)CC(NC(=O)c1cccc([N+](=O)[O-])c1)c1ccc2c(c1)OCO2 (stereo not given) | 10%
COc1ccccc1-n1c(=O)c2c3c(sc2n2c(=S)[nH]nc12)CCC3 | 16%
CC1Cc2cc(C3(O)C(=O)c4ccccc4C3=O)ccc2N1 (stereo not given) | -10%
Cn1c(SCC(=O)N2CCOCC2)nnc1-c1ccc2ncccc2c1 | 5%
CCNNC(=O)C(O)(Cc1ccccc1)Cc1ccccc1 | 5%
Cc1cc(NC(=O)c2cccc(Br)c2)no1 | -11%
COc1ccc(NC(=S)NC(C)Cc2cccs2)cc1 (stereo not given) | 5%
COc1ccc(C(=O)Nc2nc(C)cc(C)n2)cc1[N+](=O)[O-] | -5%
CN(CCOc1ccccc1)Cc1nc2cc(Cl)ccc2c(=O)[nH]1 | -17%
Cc1ccccc1Nc1sc(C(=O)c2ccccc2)c(N)c1C(=O)NCc1ccc(Cl)cc1 | 3%
Cc1ccc(NC(=O)c2c(C)nc3ccccn23)cc1C | -18%

Not all compounds are listed, so the mix of outcomes need not match the whole.
